Screens (PubChem BioAssay)
Hsc70 ATP site: small molecules displacing fluorescent ligand from Hsc70 – biochemical, fluorescence polarization, primary screen (AID 568); Hsc70 fluorescence polarization, probe displacement; higher % means a stronger effect; strong numbers were not always called active; displacement, % at 20 µM; hits with a dose series show IC50 in µM; 83,000 tested, under 10 active;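 active = displacement above 50% without optical interference and an IC50 on retest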;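 note: ATPase domain with a fluorescein-tagged ATP probe; 0% = vehicle and 100% = excess ADP; read after one hour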
MT1-MMP promoter: MT1-MMP gene expression reporter suppression – cell-based, luciferase reporter, luminescence (AID 618). MT1-MMP promoter luciferase reporter cells, luminescence. calls from a first round at 10 µM; hits with a dose series show EC50 in µM. 87,000 tested, 0.62% active;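 active = over half of the reporter light lost at 10 µM or EC50 under 50 µM; inactive = the rest and hits that failed the dose series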;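 note: actives suppress MT1-MMP promoter-driven transcription so potencies describe inhibitors; HT1080 fibrosarcoma cells; overnight exposure; toxic or luciferase-blocking compounds were not removed from the actives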
WNV protease inh: inhibitors of West Nile virus NS2B-NS3 protease; z-score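 (tested at a level between 10 and 100 µM)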; WNV NS2B-NS3 protease, fluorogenic substrate Ex360/Em465; stronger effect = lower value; 65,000 tested, 0.18% active; P06935; AID 577;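 active = z-score at -3 or under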;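 note: score is relative to mean and spread of the compound wells of a plate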
Target sequence (P06935 1371-1501 limits assumed): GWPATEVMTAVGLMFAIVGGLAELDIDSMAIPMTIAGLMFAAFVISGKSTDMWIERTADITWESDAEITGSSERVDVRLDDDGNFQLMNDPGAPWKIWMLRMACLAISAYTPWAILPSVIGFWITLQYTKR
Target sequence (P06935 1502-1679 limits assumed): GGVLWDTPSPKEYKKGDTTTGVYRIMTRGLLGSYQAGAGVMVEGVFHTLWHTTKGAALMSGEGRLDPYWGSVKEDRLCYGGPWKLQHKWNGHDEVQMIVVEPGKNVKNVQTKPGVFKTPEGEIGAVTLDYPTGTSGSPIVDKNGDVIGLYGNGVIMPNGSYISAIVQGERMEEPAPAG
* = called active by the depositor; i = inactive; nt = not tested or not shown; & = joins results of further samples. Some of the compounds tested, so the mix of outcomes need not match the whole.

SMILES	Hsc70 ATP site	MT1-MMP promoter	WNV protease inh
COC(=O)c1cc(Br)c(=O)n(Cc2ccncc2)c1	0.2%	i	0.22
CCCc1cc(=O)oc2cc(OCC(=O)N3CCc4ccccc43)ccc12	-4.8%	i	nt
O=C(NCc1ccco1)c1ccccc1-c1ccc(C(F)(F)F)cc1	-2.1%	i	nt
Cc1c(NC(=O)C(C)Sc2ccccc2)c(=O)n(-c2ccccc2)n1C (stereo not given)	-1.3%	i	nt
CCC(=O)n1nc(-c2ccccc2)nc1NCc1ccccc1	2.0%	i	2.2
Cc1ccc(NC(=O)C(C)N2C(=O)C3CC=C(Cl)CC3C2=O)cc1 (stereo not given)	1.1%	i	-0.59
CN1CCN(C(=O)Cn2c(C(F)(F)F)nc3ccccc32)CC1	1.6%	i	nt
O=C(Nc1ccccc1)N1C2CCC1CC(O)(c1cccnc1)C2 (stereo not given)	2.1%	i	nt
COC(=O)c1nnn(-c2ccccc2)c1N	-5.0%	i	0.47
O=C(COC(=O)C1(c2ccccc2)CC1)N1CCN(c2ccc(F)cc2)CC1	0.6%	i	0.86
O=C(NCc1cccs1)C1CCN(c2nc3ccccc3o2)CC1	0.8%	i	0.75
CC(=O)c1cccc2c(O)c(C3=Nc4ccccc4C3=O)[nH]c12	1.6%	i	nt
O=C(O)C1CCCCC1C(=O)Nc1cnn(Cc2ccccc2)c1 (stereo not given)	-0.2%	i	-1.1
N#CC1=C(Nc2ccccc2)SC=C(c2ccc(F)cc2)N=C1N1CCOCC1	-2.4%	i	nt
O=C(NCc1cn2ccsc2n1)Nc1cccc(Cl)c1	-7.1%	i	0.19
Cc1oc2ccc(O)cc2c1C(=O)OC(C)C	-3.2%	i	nt
Cn1c(=O)c2c(ncn2Cc2cccc(Cl)c2)n(C)c1=O	1.0%	i	-0.82
COc1ccc(C(=O)c2coc3ccc(O)c(CN4CCCCC4)c23)cc1	3.1%	i	0.68
Cc1cc(C)nc(SCC(=O)N/N=C/c2cccn2-c2ccc(O)cc2)n1	2.5%	i	nt
COc1ccc(C2C(C#N)=C(/N=C/N3CCN(C)CC3)OC3=C2C(=O)CC(C)(C)C3)cc1OC (stereo not given)	3.2%	i	-0.16
CC1CCN(C(=O)CSc2nc3c(cnn3-c3ccc(Cl)cc3)c(=O)[nH]2)CC1	0.5%	i	-1.3
Cc1ccc(S(=O)(=O)N=C2SCCCS2)cc1	-3.1%	i	-0.63
COc1ccc(OC)c(NC(=O)CS(=O)(=O)Cc2nc(-c3ccccc3C)oc2C)c1	1.2%	i	-0.85
CC1CCCC(NC(=O)c2ccc3c(c2)N(Cc2ccccc2)C(=O)CS3=O)C1C (stereo not given)	3.9%	i	-1.1
CC(=O)Nc1ccc(-c2nnc(SCc3ccccc3C#N)n2C)cc1	3.1%	i	nt
CC(C)CNC(=O)c1c(N)n(/N=C/c2cccnc2)c2nc3ccccc3nc12	-3.5%	i	0.65
CCC(=O)n1nc(-c2ccc(OC)cc2)nc1N	-1.2%	i	0.79
COc1cc(-c2c(C#N)c(N)nc3c2CCCC3)cc(OC)c1OC	-1.7%	i	-0.66
CCOc1ccc(-c2nnn(CC(=O)Nc3cc(OC)ccc3OC)n2)cc1OCC	4.6%	i	-0.48
COC(=O)C(NC(=O)c1ccc(F)cc1)(Nc1nc(C)cs1)C(F)(F)F (stereo not given)	-3.0%	i	0.15
Cn1cc(C(=O)N2CCc3ccccc3C2)c(=O)c2cc(S(=O)(=O)N3CCCCC3)ccc21	-3.3%	i	nt
COCCn1nnnc1C(c1cc2ccc(OC)cc2[nH]c1=O)N1CCc2ccccc2C1 (stereo not given)	0.1%	i	0.08
CCN(CC)C(=O)Cn1cnc2sc(C(=O)N3CCN(c4ccc(OC)cc4)CC3)c(C)c2c1=O	-2.1%	i	nt
Cc1ccc(OCCn2cc(C#N)c3ccccc32)cc1	-0.4%	i	nt
C=CCn1c(Sc2ccccc2)nc2c1c(=O)[nH]c(=O)n2C	0.4%	i	nt
CN(C)CCCNS(=O)(=O)c1ccc(N2CCC(c3ccc(Cl)cc3)=N2)cc1	7.3%	12µM*	nt
CC1=C(C(N)=O)C(c2ccccn2)n2nc(SCc3ccccc3Cl)nc2N1 (stereo not given)	-1.0%	i	-0.58
COC(=O)c1cc(COc2ccc3c4c(c(=O)oc3c2)CCC4)c(C)o1	-2.1%	i	nt
CCCc1cc(=O)n2c(nc3ccccc32)[nH]1	-2.8%	i	-0.51
COC(=O)c1ccccc1NC(=O)n1cc(C)cn1	-5.6%	i	1.5
CC(=O)C1(C)OC(N)=C(C#N)C(c2ccccc2)C1(C#N)C#N (stereo not given)	12%	i	-0.3
N#CCCN(C(=O)CN1C(=O)NC2(CCCC2)C1=O)c1ccccc1F	2.4%	i	-0.2
Cc1cc(C(=O)NCc2ccc(S(N)(=O)=O)cc2)cs1	-6.9%	i	-0.18
COC(=O)c1ccc(C2/C(=C(/O)c3ccc(OC)cc3)C(=O)C(=O)N2CC2CCCO2)cc1 (stereo not given)	2.9%	i	-0.4
CCCn1c(SCC(=O)Nc2cc(Cl)ccc2OC)n[nH]c1=O	2.2%	i	nt
NC(=O)Nc1ccc(F)cc1	6.5%	i	nt
CCN1CCCc2cc(CN(CCN3CCOCC3)C(=O)Nc3ccc(C)c(C)c3)ccc21	6.8%	i	nt
CNC(=O)C(Sc1nc(C)nc2c1oc1ccccc12)C(C)=O (stereo not given)	-3.2%	i	nt
Cc1ccc(C(=O)Nc2cccc(C(=O)O)c2)cc1S(=O)(=O)N1CCCCC1	-3.1%	7.2µM*	0.04
CCN1CCCC1CNS(=O)(=O)c1cc(Br)cc2c1N(C(=O)C1CC1)CC2 (stereo not given)	-11%	i	-0.61
CCOC(=O)C1=C(c2ccccc2)Nc2ncnn2C1c1cc(OC)cc(OC)c1OC (stereo not given)	-2.4%	i	0.94
CCCCC(=O)Nc1cccc(NC(=O)c2ccc(Br)o2)c1	-5.3%	i	-0.62
CCOC(=O)C1(C)NC(c2cc(OC)c(OC)c(OC)c2)C2C(=O)N(CC)C(=O)C21 (stereo not given)	-0.1%	i	0.4
CCOC(=O)C1=NN(N=O)C2(CC(=O)N(c3cc(C)cc(C)c3)C2=O)C1 (stereo not given)	-0.3%	i	nt
C=CCNc1sc(C(=O)c2cccs2)c(N)c1C#N	-2.6%	i	-0.27
CNc1nc(C)nc(-n2nc(C)cc2C)n1	0.8%	i	0.12
c1csc(-c2nnsc2-c2nc3ccccc3[nH]2)c1	1.0%	i	0.12
Cc1onc(-c2c(F)cccc2Cl)c1C(=O)N1CCCc2ccccc21	2.9%	i	-0.76
COc1ccc(S(=O)(=O)N(CC(=O)NCc2ccco2)c2ccccc2)cc1OC	3.1%	i	-0.88
Cc1ccccc1N1CCN(c2ncnc3scc(-c4cccs4)c23)CC1	0.5%	i	nt

More compounds:
SMILES	Hsc70 ATP site	MT1-MMP promoter	WNV protease inh
CC(=O)N(CC(C)(C)CC=C(C)C)c1ccccc1	-7.8%	i	1.5
C=CCC(O)(CCN1CCCCC1)c1ccccc1 (stereo not given)	2.0%	i	-2
CN1CCC2(CC1)NC(=O)NC2=O	-2.7%	i	0.8
CCOC(=O)c1nn(-c2ccccc2)c(C#N)c1NC(=O)c1nn(CC)cc1Br	1.9%	i	-1.1
O=C(O)c1ccc(COc2ccc(Cl)cc2)o1	-3.0%	i	0.29
O=S(=O)(c1ccc(F)cc1)N1CCN(c2ccccc2)CC1	5.0%	i	nt
O=C(COn1nnc2ccc(C(F)(F)F)cc21)Nc1nnc(-c2ccccc2)o1	-2.8%	i	0.18
O=C1CCC(=O)N1OCCCOc1ccccc1	4.2%	i	nt
Cc1occc1C(=O)Nc1cc(C(F)(F)F)ccc1Cl	2.1%	i	1.6
CC1CN(c2oc(-c3cccs3)nc2C#N)CC(C)O1 (stereo not given)	3.8%	i	1.1
COc1cccc(C2=NOC(C(=O)Nc3cccnc3)C2)c1 (stereo not given)	1.6%	i	-0.87
CCn1c(=O)c(C(=O)CN(C)Cc2cccc(OC)c2OC)c(N)n(Cc2ccccc2)c1=O	-6.1%	i	nt
N#C/C(=N\O)c1nc(-c2ccccc2)cs1	-5.1%&5.4%	i	0.23
Cc1ccccc1-n1ccnc1SCC(=O)O	0.7%	i	nt
O/N=C1/CC/C(=N\O)c2nn(-c3ccccc3)nc21	-2.6%	i	0.65

Three of these compounds, reformatted:
SMILES | Hsc70 ATP site | MT1-MMP promoter | WNV protease inh
COc1ccc(S(=O)(=O)N(CC(=O)NCc2ccco2)c2ccccc2)cc1OC | 3.1% | i | -0.88
Cc1ccccc1N1CCN(c2ncnc3scc(-c4cccs4)c23)CC1 | 0.5% | i | nt
CC(=O)N(CC(C)(C)CC=C(C)C)c1ccccc1 | -7.8% | i | 1.5

Next section
SMILES	Hsc70 ATP site	MT1-MMP promoter	WNV protease inh
CCOc1cc(C)c(S(=O)(=O)Nc2ccc(Cl)cn2)cc1C	-0.6%	i	0.38
CN1CCc2c(C#N)c(N3CCCCC3)nc(NCc3ccccc3)c2C1	9.4%	i	-1.1
COc1ccc(N2C(=O)CC(N3CCN(S(=O)(=O)c4c(F)cccc4F)CC3)C2=O)cc1OC (stereo not given)	7.5%	i	-0.1
COCC(C)N=CC1=C(O)CC(C)(C)CC1=O (stereo not given)	4.5%	i	2.1
O=c1cc(CN2CCN(Cc3ccccc3)CC2)c2cc(Cl)ccc2o1	0.4%	i	-0.22
CCCCn1nnnc1NCc1ccc(N2CCCC2)cc1	2.0%	i	-0.22
CCc1nnc(SCc2ccc(OC)c(Br)c2)n1N	-9.1%	i	-0.42
COc1ccc(C)cc1NC(=O)CSc1nnc(-c2ccc(OC)c(OC)c2)n1N	-0.2%	i	0.7
Cc1ccc(C(=O)NCC(=O)OCC(=O)c2c(N)n(C)c(=O)n(C)c2=O)s1	-3.2%	i	-0.84
CS(=O)(=O)N1CCc2ccccc2C1	1.6%	i	nt
O=C(c1ccc(Cl)nc1)N1CCc2ccccc2C1	5.5%	i	nt
Cc1ccc(S(=O)(=O)CC2CSc3nnc(C)c(=O)n32)cc1 (stereo not given)	0.7%	i	-0.22
COc1ccc(NCC(=O)Nc2ccc(Cl)cc2C)c(OC)c1	1.2%	i	0.29
O=C(CSC1=Nc2ccccc2C2=NC(CC(=O)NCc3ccco3)C(=O)N12)NCC1CCCO1 (stereo not given)	-0.7%	i	-0.69
COCCNC(=O)CN(C(=O)CCC(=O)Nc1ccccn1)c1ccc(F)cc1	0.1%	i	-0.42
O=C1CC(N2CCN(c3nc4ccccc4s3)CC2)C(=O)N1c1ccc(F)cc1 (stereo not given)	3.8%	i	-0.64
CCCCn1cnc2c1c(=O)n(C)c(=O)n2C	0.6%	i	-0.51
Cc1nc([N+](=O)[O-])c(N2CCN(C)CC2)n1Cc1ccccc1	6.6%	i	nt
COc1cccc(C(=O)NCc2cccnc2)c1	-5.8%	i	-0.82
Cc1cc(Cl)ccc1OCc1nc(-c2ccc(O)cc2)n[nH]1	-1.0%	i	-0.76
Cc1nccn1-c1ccc(C(F)(F)F)cc1NC=O	3.8%	i	-0.76
O=C(NC1CCN(Cc2ccccc2)CC1)C1COc2ccccc2O1 (stereo not given)	-2.2%	i	2.7
O=C(CN1C(=O)CCSc2ccccc21)Nc1ccc2c(c1)OCO2	1.9%	i	-0.65
Cc1ccc(OCCn2cnc3c(N)ncnc32)cc1	8.3%	i	nt
NC(=O)CSCc1cccc(Br)c1	4.6%	i	-1.1
CCCOC(=O)C1=C(C)NC2=C(C(=O)CCC2)C1c1ccc(N(C)C)cc1 (stereo not given)	-4.6%	i	-0.88
CCn1nnc(-c2ccccc2NC(=O)c2ccc(-n3cnnn3)cc2)n1	-0.4%	i	0.16
CC1(C)CC(=O)C(C=NCC2CCN(C(=O)Nc3ccc(Cl)c(Cl)c3)CC2)=C(O)C1	-2.1%	i	nt
CCC(=O)Nc1cc(-c2nn3c(C)nnc3s2)ccc1C	-1.7%	i	-0.6
CCOc1ccc(N2C(=O)CC(Sc3nc(C)cc(C)n3)C2=O)cc1 (stereo not given)	4.4%	i	-0.89
COc1ccc(CC(=O)N2CCN(C(=O)Cc3ccc(OC)cc3)CC2)cc1	-3.8%	i	-0.89
CCOC(=O)CCc1c(C)nc2cc(C3CCCN(C(=O)OC(C)(C)C)C3)[nH]n2c1=O (stereo not given)	-2.6%	i	-0.75
CSc1ncccc1C(=O)OCc1ccccc1	2.2%	i	-0.41
COc1ccc(-c2cn3cc(Cl)ccc3n2)cc1OC	-5.5%	i	-0.61

Some of these compounds in order of molar mass, rising:
SMILES	Hsc70 ATP site	MT1-MMP promoter	WNV protease inh
CCCc1cc(=O)n2c(nc3ccccc32)[nH]1	-2.8%	i	-0.51
CNC(=O)C(Sc1nc(C)nc2c1oc1ccccc12)C(C)=O (stereo not given)	-3.2%	i	nt
CCOC(=O)c1nn(-c2ccccc2)c(C#N)c1NC(=O)c1nn(CC)cc1Br	1.9%	i	-1.1

3 of the compounds above, with bars between the fields:
Structure | Hsc70 ATP site | MT1-MMP promoter | WNV protease inh
COc1ccc(CC(=O)N2CCN(C(=O)Cc3ccc(OC)cc3)CC2)cc1 | -3.8% | i | -0.89
CCOC(=O)CCc1c(C)nc2cc(C3CCCN(C(=O)OC(C)(C)C)C3)[nH]n2c1=O (stereo not given) | -2.6% | i | -0.75
CSc1ncccc1C(=O)OCc1ccccc1 | 2.2% | i | -0.41
